TRPML1 agonist: agonists of human TRPML1 channel | 410,000 tested, 0.12% active | TRPML1-expressing cells, Ca2+ dye fluorescence, FDSS; host cell line not named in the record; reference of the full effect not given here | activation, % (test concentration not listed) | AID 624414 | Q9GZU1; in the data active = activation above about 50%; inconclusive = about 30% to 50%; inactive = below about 30%; also: 0% is about no effect; the text of the record puts the active cut at 80%
Target sequence (Q9GZU1 whole entry, looked up): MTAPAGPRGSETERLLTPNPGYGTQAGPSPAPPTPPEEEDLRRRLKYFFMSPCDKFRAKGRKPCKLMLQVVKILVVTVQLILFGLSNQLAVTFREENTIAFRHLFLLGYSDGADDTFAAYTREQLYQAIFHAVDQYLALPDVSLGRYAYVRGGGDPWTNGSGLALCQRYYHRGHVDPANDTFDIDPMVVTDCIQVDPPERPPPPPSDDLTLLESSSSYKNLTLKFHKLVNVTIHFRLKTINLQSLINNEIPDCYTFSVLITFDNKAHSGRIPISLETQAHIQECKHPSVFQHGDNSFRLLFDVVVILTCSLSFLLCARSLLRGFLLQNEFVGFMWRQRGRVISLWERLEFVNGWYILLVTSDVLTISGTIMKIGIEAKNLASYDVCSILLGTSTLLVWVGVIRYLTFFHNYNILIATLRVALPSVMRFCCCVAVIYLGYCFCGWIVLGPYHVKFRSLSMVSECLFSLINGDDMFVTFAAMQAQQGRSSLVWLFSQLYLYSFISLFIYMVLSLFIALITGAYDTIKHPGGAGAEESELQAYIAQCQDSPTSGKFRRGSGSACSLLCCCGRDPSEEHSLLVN
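Calcium fluorescence on an FDSS kinetic reader gave the read-out. Tet-induced TRPML1-DL cells were plated overnight, dye-loaded (Ca8 with quencher, 45-90 min, room temperature, dark), then read 110 s after compound addition, and again 110 s after 4uM final 54-4 (EC80).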
TRPML1 blocker: human mucolipin-1 channel inhibition; activity change, negative = inhibition, % (no concentration beside the values); 390,000 tested, 0.02% active; AID 624415; Q9GZU1; TRPML1-inducible cells, Ca2+ dye fluorescence, FDSS; active compounds read low; inhibition of EC80 agonist-evoked calcium signal; in the data active means activity change below about -50%; inconclusive means about -30% to -50%; inactive means above about -30%;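 also: stimulus is agonist 54-4 at its EC80 concentration; % is scaled to controls: 0 for no effect and ±100 for the full control effect; compound concentration not given in the record; the text of the record puts the active cut at -80%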
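Calcium fluorescence in TRPML1-DL cells induced overnight with Tet: a 110 s read after compound pin addition, then a 110 s antagonist read after challenge with 54-4 at 4 uM final (EC80).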
PINK1 modulator: modulators of PINK1 expression; PINK1 immunofluorescence, high-content cytometry, 24 h; Potency, µM (top dose mostly 76.6 µM), for inactives: at the top dose activation (PINK1 increase), usual class: activators; 410,000 tested, 0.2% active; AID 624263; active = well fitted activation curve with a large enough effect; inconclusive = small, poorly fitted or top-dose-only effect; inactive = flat fitted curve, though single readings scatter; cell line not stated here;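 also: potency is read from the fitted curve at half-maximal effect; % of control where 0% means no effect; nearly all actives have a fitted effect of over 65% in size; a mitochondrial uncoupler was the plate control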
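Stable cell line treated 24 h with compounds at 5 concentrations (CCCP controls), then fixed and immunostained for PINK1 plus nuclear and cell stains; PINK1 immunofluorescence quantified by laser-scanning microplate cytometry.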
D2 agonist: agonists of human D2 dopamine receptor (beta-arrestin); 360,000 tested, 0.084% active; activation, % (concentration not given with the values); DiscoveRx PathHunter D2 beta-arrestin, luminescence, 90 min; 100% = 57 uM dopamine signal; P14416; in the data active = activation above about 40%; inconclusive = about 15% to 40%; inactive = below about 15%; also: compound concentration not given in the record; the text of the record calls up to 30% inactive
Target sequence (P14416 whole entry, looked up): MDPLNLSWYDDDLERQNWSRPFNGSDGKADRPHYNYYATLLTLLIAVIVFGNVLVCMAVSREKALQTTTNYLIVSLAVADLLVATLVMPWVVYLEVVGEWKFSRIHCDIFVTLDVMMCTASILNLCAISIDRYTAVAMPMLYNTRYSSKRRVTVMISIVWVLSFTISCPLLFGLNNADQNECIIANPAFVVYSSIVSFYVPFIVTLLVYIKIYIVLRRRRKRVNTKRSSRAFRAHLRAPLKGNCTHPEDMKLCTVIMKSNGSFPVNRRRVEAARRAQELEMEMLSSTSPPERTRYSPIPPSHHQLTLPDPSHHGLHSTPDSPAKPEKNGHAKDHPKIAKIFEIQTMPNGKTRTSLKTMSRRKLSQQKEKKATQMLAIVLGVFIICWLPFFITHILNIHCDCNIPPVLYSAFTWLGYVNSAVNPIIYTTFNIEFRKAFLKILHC
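DiscoveRx PathHunter D2 beta-arrestin cells (2,100/well) attached overnight, then compound-stimulated 90 min at 37 C in HBSS/10 mM HEPES/0.1% Tween-20 buffer; beta-galactosidase complementation read by luminescence after 1 h at ambient temperature. Dopamine 57 uM final (EC100) as control.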
Six1-Eya2 inh: Six1/Eya2 interaction inhibition; Q15475+O00167; AlphaScreen GST-Six1/His-Eya2 binding, biochemical; active compounds read low; control for the full effect not named in the record; activity change, % (concentration not given with the values); 360,000 tested, 0.56% active; AID 651725; in the data active = activity change below about -65%; inconclusive = about -30% to -65%; inactive = above about -30%; also: % is scaled to controls: 0 for no effect and ±100 for the full control effect
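Compounds are tested against tagged Six1 and Eya2 proteins bridged by glutathione donor and nickel acceptor beads; after a one-hour incubation at 37 °C without light, AlphaScreen emission is recorded.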
CtBP-E1A blk: inhibitors of CtBP/E1A interaction; 340,000 tested, 0.49% active; activity change, % (test concentration not listed); AlphaScreen GST-E1A/His-CtBP binding, 1536-well; active compounds read low; control for the full effect not named in the record; in the data active means activity change below about -65%; inconclusive means about -30% to -65%; inactive means above about -30%; also: % is scaled to controls: 0 for no effect and ±100 for the full control effect
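GST-E1A and His-tagged CtBP (125 nM each as 5X stock) were preincubated with pin-transferred compound for 2 h at 37 °C in the dark, then glutathione donor and nickel acceptor beads were added for 1 h before AlphaScreen reading.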
The depositor's hits bear a star; ? = inconclusive; · = no result given; & = joins results of further samples; [ ] = another dose, or the depositor's remark.

SMILES | TRPML1 agonist | TRPML1 blocker | PINK1 modulator | D2 agonist | Six1-Eya2 inh | CtBP-E1A blk
COC(=O)C1=C(c2c(C)noc2C)C[C@@H]2CC[C@H]1N2C(=O)NCCCOC(C)C | -0.1 | 2.4 | -0.7% | -7.1 | 4.6 | 2.3
C=CCn1c(O)c(/C=N/N2CCCCC2)c(=O)[nH]c1=O | -1.0 | -4.5 | -0.4% | -6.2 | -4.6 | 0.1
Cc1ccc(CN2CC3CC(C2)c2cccc(=O)n2C3)cc1 (stereo not drawn) | 1.2 | -4.3 | 3.1%[38.3 µM] | -2.3 | 0.0 | 4.7
COC/C=C1\CN2C3C[C@@H]1[C@H]1COC4=Nc5cc(OC)c(OC)c(OC)c5[C@@]43C[C@@H]12 | · | · | -0.7% | -6.7 | 0.5 | 0.0
CC(O)(CS(=O)(=O)c1ccccc1)C(=O)Nc1ccc(C(F)(F)F)cc1 (stereo not drawn) | 0.6 | 11.5 | -1.5%[38.3 µM] | -0.8 | -11.4 | -4.6
Cc1cc(/C=C2\C(=O)NC(=O)N(c3ccccc3)C2=O)c(C)n1-c1ccc(C(=O)O)c(Cl)c1 | -0.5 | -5.1 | -0.8% | -3.2 | -3.7 | ·
COC(=O)C1=C(c2c(C)noc2C)C[C@@H]2CC[C@H]1N2C(=O)N1CCC(C)CC1 | -0.3 | -2.9 | 8.9% | -1.7 | 1.2 | 3.3
CCCCn1c(C)c(C(=O)OCC)c2c(CN3CCCC3)c(O)ccc21 | 1.3 | 32.4 | 19.5% | -0.1 | -13.6 | -10.7
COc1ccc(-c2nn(CCC#N)cc2C(=O)NCc2ccccc2)cc1[N+](=O)[O-] | 0.7 | 7.9 | 0.6% | -2.6 | -0.3 | -0.6
CCN(CC)C(=O)Cn1cc(C=C2C(=O)N(C)C(=O)N(C)C2=O)c2ccccc21 | -1.0 | 6.5 | 1.1% | -2.6 | 6.8 | 3.1
Cn1ncnc2c(=O)n(C)c(=O)nc1-2 | 3.1 | 24.5 | -3.8% | 7.5 | -2.7 | ?
CC12CCC3C(CC=C4CC(O)CCC43C)C1C/C(=C\c1cccc(F)c1)C2=O (stereo not drawn) | 0.4 | 70.0 | 6.0% | -0.6 | 1.3 | -7.4
C=Cn1ccnc1P(=S)(c1ccc(N(C)C)cc1)c1nccn1C=C | -0.2 | 15.1 | 7.9%[38.3 µM] | -1.8 | -5.8 | -21.0
C=C(C)[C@H]1CN[C@H](C(=O)O)[C@H]1CC(=O)O | 0.1 | 12.8 | -0.3% | -2.3 | 4.2 | 2.4
COC(=O)[C@@]1(C#N)[C@@H]2C=CC(C(C)=O)=CN2[C@@H](C(N)=O)[C@@H]1c1ccc(F)cc1 | 0.3 | -19.8 | -2.1% | 7.2 | -0.8 | 4.6
CCOP(=O)(OCC)C(c1ccccc1)N(C)C=O (stereo not drawn) | -0.6 | -3.9 | -1.2%[38.3 µM] | 2.4 | 8.0 | 17.7
Clc1ccccc1CN1CCNCC1 | -0.2 | -13.5 | -0.3% | -1.1 | 2.3 | 0.6
CC(=O)Nc1ccc(C2CN(C)CC2C(=O)c2ccc(Cl)cc2)cc1 (stereo not drawn) | 0.6 | 21.8 | -0.6% | 7.6 | -0.3 | ·
Cn1c(O)c(C=NCCCC(=O)O)c(=O)n(C)c1=O | 0.0 | -11.5 | 1.3% | 6.1 | 3.5 | 0.5
O=C1NC(=O)N(CCNc2ncc(C(F)(F)F)cc2Cl)C(=O)C1/C=N/OCc1c(F)cccc1Cl (stereo not drawn) | 0.0 | 7.5 | -2.3% | -6.9 | -1.5 | -2.6
CCc1ccc(CNCCc2ccccc2F)cc1 | -0.3 | -6.3 | 4.7% | 0.7 | 9.1 | 9.7
COc1ccc2[nH]c3c(c2c1)CCN[C@H]3C | 0.4 | 29.7 | 4.1% | -1.9 | -7.1 | -19.5
CCc1ccc(N2C(=O)NC(=O)/C(=C\C=C\c3ccco3)C2=O)cc1 | 5.5 | -2.4 | 0.5% | -4.9 | -8.2 | ·
CCCNS(=O)(=O)c1ccc(OCC(=O)N2CCN(C)CC2)cc1 | 1.0 | 2.9 | · | -3.2 | -11.5 | -9.2
CS(=O)(=O)c1ccc(C2=C(CNC(=O)c3ccncc3)[C@H]3CC[C@@H](C2)N3Cc2ccco2)cc1 | 0.2 | 15.2 | 1.3% | -1.0 | -1.0 | -0.8
The list continues.
SMILES | TRPML1 agonist | TRPML1 blocker | PINK1 modulator | D2 agonist | Six1-Eya2 inh | CtBP-E1A blk
Cc1ccc(NC(=O)CN2C(=O)CN=C(c3ccccc3)c3cc(Cl)ccc32)cc1 | 0.0 | 29.2 | ? | -3.0 | -3.7 | -26.3
O=c1[nH]c2ccccc2n1C1CCN(C(c2cccs2)c2nnnn2-c2ccc3c(c2)OCCO3)CC1 (stereo not drawn) | -0.7 | · | -0.8% | 7.1 | -12.8 | -8.9
CCOP(=O)(OCC)C(NC(=O)c1ccc(OC)cc1)C(Cl)(Cl)Cl (stereo not drawn) | 0.9 | 22.1 | -1.1% | 3.0 | -2.6 | 7.4
Cc1cc(OC(C)C(=O)NCc2cccnc2)c2c3c(c(=O)oc2c1)CCC3 (stereo not drawn) | 0.0 | -9.6 | 4.7% | -2.0 | 3.2 | 5.0
Cc1ccc(OCC(=O)N2CCN(Cc3ccc([N+](=O)[O-])cc3)CC2)cc1 | · | · | 0.3% | -5.3 | -4.5 | -13.5
O=C(C(=O)N1CCOCC1)c1cn(Cc2ccccc2)c2ccccc12 | 1.3 | 27.6 | -1.1% | 0.2 | 0.0 | -0.2
[N-]=[N+]=NCCN1CCC(O)CCC1=O (stereo not drawn) | 0.0&-0.4 | -5.2 | 0.5% | -2.8 | 3.5 | 6.2
CCCCSP1(=S)NCCCN1 | 1.3 | -12.6 | 0.4% | -1.3 | 0.0 | 4.7
COc1ccc(OCC(=O)N2CCN(C(C)C)CC2)cc1 | 0.1 | 3.7 | -0.1% | -1.1 | 7.3 | -2.1
COc1cccc(N2C(=O)CC(=O)NC2=O)c1 | 0.0 | -2.7 | -6.2%[38.3 µM] | -0.2 | 4.4 | 0.6
O=S(=O)(c1ccc(F)cc1)N1CN2CCN(C2)C1 | · | · | 0.6% | -1.9 | 6.8 | ·
O=C1CCCC2C3CCCN4CCCC(CN12)C34 (stereo not drawn) | · | · | -0.1% | -4.8 | -5.3 | 2.2
CC1CN(CCc2ccccc2)CC(C)O1 (stereo not drawn) | 0.8 | 4.6 | ? | 0.9 | 3.6 | 0.3
CC1C(C)N1CC(O)Cn1ccnc1[N+](=O)[O-] (stereo not drawn) | 2.0 | -6.5 | -1.4% | 0.7 | 6.5 | ·
O=C1NC(=O)C(C(CC(=O)c2ccccc2)c2ccccc2)C(=O)N1 (stereo not drawn) | -0.2 | -1.6 | -0.3% | -3.2 | -2.3 | 1.9
CCCOc1ccc(C(=O)NC(=S)N2C[C@H]3C[C@H](C2)c2cccc(=O)n2C3)cc1 | · | · | -0.3% | -4.8 | 1.0 | 6.3
CC[C@]12C=CCN3CCC4(c5cc(Br)c(OC)cc5N(C)C4[C@@](O)(C(=O)OC)[C@@H]1OC(C)=O)C32 (stereo partly drawn) | 0.4 | -19.1 | -2.5% | -0.2 | -2.5 | ·
CC1=C(C)CN2CC(C#N)=C(N)C2C1 (stereo not drawn) | -0.5 | · | 1.8% | 0.5 | ? | ?
CC/C(=N\Nc1ccccc1)c1c(O)n(-c2ccccc2)c(=O)[nH]c1=O | 0.2 | -2.0 | 1.3% | 8.8 | -1.7 | 1.9
Cc1c(N=Nc2c(O)[nH]c(=S)[nH]c2=O)c(=O)n(-c2ccccc2)n1C | 0.5 | 10.3 | 1.4% | -7.7 | -83.8* | -93.0*
CSc1nnc(OC(=O)N(C)C)n1-c1ccc(Cl)cc1 | -0.8 | 42.6 | 1.1% | -5.2 | 4.5 | ·
O=C(/C=C/c1ccc(Br)cc1)NC(=S)N1C[C@H]2C[C@H](C1)c1cccc(=O)n1C2 | · | · | 0.1% | 2.9 | -1.3 | -10.1
O=C(COC(=O)Cc1ccccc1)NC12CC3CC(CC(C3)C1)C2 | 0.2 | 14.3 | 0.3% | -2.0 | 3.9 | 5.3
Cn1c(=O)n(C)c2cc([N+](=O)[O-])c(N3CCNCC3)cc21 | -0.2 | -9.0 | 0.3% | -4.9 | 4.2 | 2.2
COP(=O)(OC)C(NC(C)=O)C(Cl)(Cl)Cl (stereo not drawn) | 1.1 | 42.4 | -1.6% | 0.9 | 7.0 | -9.0
CCC1(CC)C(=O)N(C)C(=O)NC1=NC | -0.4 | -5.5 | 0.3% | -4.8 | 6.0 | 8.2
Oc1ccc(Cl)cc1Cc1cc(Cl)ccc1O | -0.7 | 1.3 | ? | -5.9&-1.2 | -2.6 | -2.6

Entries listed so far with an aryl methoxy group, in the order listed:
SMILES | TRPML1 agonist | TRPML1 blocker | PINK1 modulator | D2 agonist | Six1-Eya2 inh | CtBP-E1A blk
COC/C=C1\CN2C3C[C@@H]1[C@H]1COC4=Nc5cc(OC)c(OC)c(OC)c5[C@@]43C[C@@H]12 | · | · | -0.7% | -6.7 | 0.5 | 0.0
COc1ccc(-c2nn(CCC#N)cc2C(=O)NCc2ccccc2)cc1[N+](=O)[O-] | 0.7 | 7.9 | 0.6% | -2.6 | -0.3 | -0.6
COc1ccc2[nH]c3c(c2c1)CCN[C@H]3C | 0.4 | 29.7 | 4.1% | -1.9 | -7.1 | -19.5
CCOP(=O)(OCC)C(NC(=O)c1ccc(OC)cc1)C(Cl)(Cl)Cl (stereo not drawn) | 0.9 | 22.1 | -1.1% | 3.0 | -2.6 | 7.4
COc1ccc(OCC(=O)N2CCN(C(C)C)CC2)cc1 | 0.1 | 3.7 | -0.1% | -1.1 | 7.3 | -2.1
COc1cccc(N2C(=O)CC(=O)NC2=O)c1 | 0.0 | -2.7 | -6.2%[38.3 µM] | -0.2 | 4.4 | 0.6
CC[C@]12C=CCN3CCC4(c5cc(Br)c(OC)cc5N(C)C4[C@@](O)(C(=O)OC)[C@@H]1OC(C)=O)C32 (stereo partly drawn) | 0.4 | -19.1 | -2.5% | -0.2 | -2.5 | ·

The list is partial; the hit share may differ from the screen's.
